# Assay outcomes (PubChem)
# Cruzain noTriton: qHTS Assay for Promiscuous and Specific Inhibitors of Cruzain (without detergent); Potency, µM, for inactives: max response, negative = inhibition, usual class: inhibitors; purified cruzain, Z-FR-AMC fluorescence, no detergent; AID 1476, 2009; Cruzipain (Trypanosoma cruzi), P25779; 2.3% of 200,000 active; active = well fitted curve in the direction sought with a large enough effect; inconclusive = small, poorly fitted or top-dose-only effect, or another doubt; inactive = no such curve, though single readings can be large; an effect the other way counts as inactive or inconclusive;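 also: plate controls were enzyme without inhibitor for no effect and buffer without enzyme for full effect; nearly all actives have a fitted effect of over 40% in size; top concentration of the series not given in the record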
# Target sequence (P25779 123-467 limits assumed): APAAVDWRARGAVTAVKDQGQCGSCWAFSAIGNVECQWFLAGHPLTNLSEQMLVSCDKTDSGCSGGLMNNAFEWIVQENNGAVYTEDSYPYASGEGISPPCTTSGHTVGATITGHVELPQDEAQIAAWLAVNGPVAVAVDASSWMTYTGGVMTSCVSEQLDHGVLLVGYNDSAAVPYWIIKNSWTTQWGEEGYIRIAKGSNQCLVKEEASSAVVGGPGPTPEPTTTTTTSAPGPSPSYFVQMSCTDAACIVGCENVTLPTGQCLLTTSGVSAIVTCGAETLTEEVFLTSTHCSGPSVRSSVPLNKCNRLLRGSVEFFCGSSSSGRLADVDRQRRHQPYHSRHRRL
#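 Purified cruzain at 1.5 nM, pre-incubated 15 min with compound at room temperature in 100 mM sodium acetate pH 5.5, 5 mM DTT, 0.00005% Triton X-100. Reaction started with 2 uM Z-FR-AMC; AMC fluorescence increase over 60 s gives rate.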
# SARS PLP yeast: qHTS of Yeast-based Assay for SARS-CoV PLP | 0.19% of 330,000 active | S. cerevisiae expressing SARS-CoV PLpro, growth rescue; control for the full effect not named in the record | AID 485353, 2010 | Potency, µM (doses to about 32.9 µM), for the others: at the top dose activity, positive = growth rescue; also: 0% is about no effect; nearly all actives have a fitted effect of over 55% in size; growth read by luminescence after 48 h
# 2A StopGo: High Throughput Screening for Foot and Mouth Disease Virus Antivirals | human cells with a luciferase reporter of 2A StopGo recoding; control for the full effect not named in the record | Potency, µM (top dose mostly 57.9 µM), for inactives: top-dose signal change, negative = less light | 1.2% of 410,000 active; active = well fitted falling curve with a large enough effect; inconclusive = small, poorly fitted or top-dose-only effect; inactive = no such curve, though single readings can be large or run the other way; tested in HEK293T cells; also: % is scaled to controls: 0 for no effect and ±100 for the full control effect; nearly all actives have a fitted effect of over 45% in size; luciferase light after 4 h
# NS1 inh: qHTS Assay for Inhibitors of Influenza NS1 Protein Function | S. cerevisiae slowed by influenza A NS1, growth recovery by OD600 | AID 2326, 2010 | Potency, µM (doses to about 46.1 µM), for the others: at the top dose activity, positive = more growth | 0.4% of 270,000 active; also: actives are rising curves; nearly all actives have a fitted effect of over 50% in size
#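 Growth recovery, yeast-based: influenza A NS1 expressed in S. cerevisiae causes slow growth, and suppressors are detected by OD600. The parent strain without NS1 is used as positive control.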
# MARV entry inh: qHTS for inhibitors of binding or entry into cells for Marburg Virus | Potency, µM (highest dose often 37.8 µM), inactives show at the top dose activity change, negative = inhibition, most hits filed as inhibitors | Marburg virus pseudotyped entry inhibition, cell reporter; control for the full effect not named in the record; about a third of the inactives were read at about 46 µM | 1.8% of 300,000 active; active = well fitted inhibition curve with a large enough effect; inconclusive = small, poorly fitted or top-dose-only effect, or effect the other way; inactive = flat fitted curve, though single readings scatter; tested in HEK293 cells; about a fifth of its hits are not listed in these tables; also: % is scaled to controls: 0 for no effect and ±100 for the full control effect; luciferase read-out
# Cruzain Triton: qHTS Assay for Promiscuous and Specific Inhibitors of Cruzain (with detergent); purified cruzain, Z-FR-AMC fluorescence, 0.01% Triton; Potency, µM, for inactives: max response, negative = inhibition, actives largely listed as inhibitors; 0.43% of 200,000 active; active = well fitted curve in the direction sought with a large enough effect; inconclusive = small, poorly fitted or top-dose-only effect, or another doubt; inactive = no such curve, though single readings can be large; an effect the other way counts as inactive or inconclusive;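 also: plate controls were neutral wells for no effect and buffer without enzyme for full effect; nearly all actives have a fitted effect of over 40% in size; top concentration of the series not given in the record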
#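 15 min RT preincubation of 1.5 nM cruzain with compound, then 2 uM Z-FR-AMC added; kinetic AMC fluorescence, 60 s delta. Triton X-100 0.01%, pH 5.5.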
# RE007 growth inh: qHTS Assay for Inhibitors of the HIV-1 protein Vpr. S. pombe RE007 Vpr strain, BacTiter-Glo ATP luminescence, 24 h; control for the full effect not named in the record. Potency, µM (series often up to 92.2 µM), without a hit: top-dose activity change, negative = less growth. 0.21% of 360,000 active; active = well fitted falling curve with a large enough effect; inconclusive = small, poorly fitted or top-dose-only effect; inactive = no such curve, though single readings can be large or run the other way;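 also: % is scaled to controls: 0 for no effect and ±100 for the full control effect; nearly all actives have a fitted effect of over 50% in size; the assay follows cell death caused by Vpr and the record does not say whether a fall means rescue or toxicity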
#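 Fission yeast strain RE007, carrying one chromosomally integrated HIV-1 vpr copy, was seeded at OD 0.01 in PMG+AL medium with 23 nL pinned compound. After 24 h at 30 °C and 99% humidity, viability was read by BacTiter-Glo luminescence.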
# Lassa entry inh: qHTS for Inhibitors of binding or entry into cells for Lassa Virus; Lassa virus pseudotype entry inhibition, cell reporter; control for the full effect not named in the record; Potency, µM (doses to about 37.9 µM), inactives show top-dose activity change, negative = inhibition, most hits filed as inhibitors; 1.2% of 300,000 active; AID 540256, 2011; active means well fitted inhibition curve with a large enough effect; inconclusive means small, poorly fitted or top-dose-only effect, or effect the other way; inactive means flat fitted curve, though single readings scatter; tested in HEK293 cells; also: % is scaled to controls: 0 for no effect and ±100 for the full control effect; nearly all actives have a fitted effect of over 50% in size; luciferase read-out
# * marks the source's active call; other numbers are inactive results; ? = inconclusive; . = not tested or not shown; & = joins results of further samples; [ ] = another dose, or the depositor's remark. Unless noted, calls follow the shape of the dose curve; as a rule, active means well fitted rising curve with a large enough effect; inconclusive means small, poorly fitted or top-dose-only effect; inactive means no such curve, though single readings can be large or run the other way. Potency is read from the fitted curve at half-maximal effect. This is a random part of the collection (roughly 4.8% active in at least one column).
Molecule,Cruzain noTriton,MARV entry inh,2A StopGo,NS1 inh,RE007 growth inh,Cruzain Triton,Lassa entry inh,SARS PLP yeast
NC(=O)COC(=O)c1ccc(Cl)c(S(=O)(=O)N2CCCCCC2)c1,.,1%[46.1 µM],-8%,.,-8%,.,7%[46.1 µM],-5%
COc1cccc(C2CC(c3ccc(Br)cc3)=NN2C(=O)c2ccncc2)c1OC (stereo not given),.,?,?,.,-1%,.,?,-2%
O=C(NCc1nc2ccccc2[nH]1)C1=C[C@H](C2CCCCC2)C[C@H](OCc2ccc(CO)cc2)O1,.,.,-46%,0%,9%,.,.,-2%
Cc1noc(C)c1C(=O)Nc1ccc(F)cc1F,-7%,?,-17%,6%,10%,-1.7%,8%,-2%
Cc1cc(=O)oc2c(C)c(OCC(=O)NCCc3ccc(S(N)(=O)=O)cc3)ccc12,.,.,-13%,-6%,2%,.,.,4%
CCCS(=O)(=O)c1c(S(=O)(=O)CCC)c2ccc(C(N)=O)cn2c1C(=O)c1ccc(F)cc1,.,-5%[46.1 µM],-11%,-5%,0%,.,23%[46.1 µM],0%
C[C@]12CCC3C(CC[C@H]4C[C@H](O)[C@H](O)C[C@]34C)C1CC[C@@H]2O (stereo not given in full),.,-3%,-12%,.,4%,.,-3%,.
CC(C)Cc1nnc(NC(=O)CCC(=O)N2CCN(c3ccccc3F)CC2)s1,.,.,0%,-8%,-7%,.,.,-8%
C=CCn1c(SCC(=O)NC(=O)NC2CCCC2)nnc1C1CCCCC1,18%,-21%&-21%,-8%,-10%,13%,3.9%,-18%,?
CCCSc1nc2sc3c(c2c(=O)n1-c1ccc(C)cc1)CCCC3,5%,.,-13%,.,.,1.6%,0%[46.1 µM],.
CCN(CC)C(=O)Cc1c(O)c2ccccc2[nH]c1=O,.,.,-18%,4%,-3%,.,.,7%
CN1CCC(=NNC(=O)C(=O)NCc2ccccc2)CC1,5%,12%,.,2%,9%,-1.4%,-4%,-2%
CC(C(=O)NCCSCc1cccc(Cl)c1)N(c1ccccc1)S(C)(=O)=O (stereo not given),7%,-19%,-23%&-21%,-3%,1%,-7.7%,?,1%
FC(F)(F)c1ccc(Oc2ccc3ccccc3c2Br)nc1,-7%,?,-18%,-17%,1%,-4.6%,-1%,-40%
CC1(C)C(N(O)C(=O)Nc2ccccc2)N(c2cccc(Cl)c2)C(=O)N1O (stereo not given),14%,-19%,-20%,-13%,8%,-2.8%,3%,2%
O=C(COC(=O)CNC(=O)c1ccccc1F)Nc1ccc2c(c1)OCO2,.,?,-6%,.,-15%,.,8%,-3%
CCCCOc1ccc(C(=O)NCC(=O)N2CCN(C(=O)c3ccco3)CC2)cc1,.,-27%,-17%,.,12%,.,-8%[46.1 µM],-3%
COCCn1c(CN2CCC(Cc3ccccc3)CC2)nc2c1c(=O)n(C)c(=O)n2C,0%,-7%,16µM*,12%,18%,1.8%,?,2%
O=C(NNC(=O)c1ccncc1)Nc1ccc(Cl)cc1,.,?,32%[activator],.,-7%,.,-3%[46.1 µM],.
CCOCc1nnc(NC(=O)COc2ccc3c(c2)OCO3)s1,.,?,27%,-1%,-18%,.,20%,-1%
Cc1cccc(N2CN(Cc3ccco3)CNC2=S)c1C,11%,16%,-11%,16%,7%,-2.3%,7%,-11%
CC(C)(C)NC(=O)c1nc2nc(-c3ccccc3)cc(C(F)(F)F)n2n1,-3%,?,-24%,-25%,14%,-3.1%,-1%,10%
Cc1ccc(-c2noc(C3CCCN(C(=O)c4cccc(F)c4)C3)n2)cc1 (stereo not given),.,.,1%,-9%,-13%,.,.,?
CC1CN(C(=O)COC(=O)/C=C/c2ccc(C(F)(F)F)cc2)CC(C)O1 (stereo not given),.,-4%,?,.,2%,.,-8%,10%
CC(C)Cn1c(=O)c2c(nc3n2CCCN3CCc2ccccc2)n(C)c1=O,15%,?,?,-41%,2%,-3.1%,-21%,-5%
O=C(Nc1nnc(C2=COCCO2)o1)c1cccc(F)c1,.,28%[46.1 µM],11%,-36%,-10%,.,1%[46.1 µM],1%
O=C(CCc1nc2ccccc2c(=O)[nH]1)Nc1ccc(F)cc1,0%,-21%,1%,13%,36%,-3.5%,29%,-11%
Cc1cc(C(=O)CN2C(=O)c3cccc(N)c3C2=O)c(C)n1Cc1cccs1,?,?,3%,11%,-5%,-2.2%,?,1%
Cc1nn(CC(=O)NC2C(=O)N3C(C(=O)O)=C(CSc4nnnn4C)CSC23)cc1Br (stereo not given),.,3%[46.1 µM],-13%,.,0%,.,16%[46.1 µM],-3%
Brc1cccc(-c2nnc3sc(CN4CCC5(CC4)OCCO5)cn23)c1,9%,2%&3%,15%,-15%,9%,0.3%,-3%,1%
CC(C)CNC(=S)NC(=O)c1ccc(Cl)cc1,-1%,?,0%,8%,0%,-8.4%,-5%,?
N#CC1(NC(=O)CN2c3cccc4cccc(c34)S2(=O)=O)CCCCC1,.,-11%,1%,.,2%,.,2%,6%
CC1=C(C(=O)Nc2ccccc2)C(c2ccc(C(C)C)cc2)N2C(=O)CSC2=N1 (stereo not given),22%,-7%,.,-1%,5%,-2.8%,-29%,0%
COc1cc(C)cc(C(=O)C=Cc2ccccc2)c1O,.,?,32µM*,.,?,.,-28%[46.1 µM],.
O=C(CNC1=NCCC1)c1ccc2c(c1)OCCO2,-14%,1%&1%,-20%,3%,-8%,-1.8%,12%,-2%
O=C(Cc1csc(Nc2nc(=S)[nH]c3ccccc23)n1)NCc1ccc(Cl)cc1,-29%,4%,-17%,4%,-4%,-2.5%,22%[14.3 µM],-3%
Cc1ccc(C)c(-n2nnnc2SCC(=O)Nc2c(C)n(C)n(-c3ccccc3)c2=O)c1,3%,-23%,-18%,-3%,0%,-1.1%,1%,-8%
Cc1cccc(OCc2nc(C#N)c(NCc3ccc4c(c3)OCO4)o2)c1,11%,-21%,-10%,-125%,0%,-6.7%,4%,5%
CCOc1ccc(NC(=S)N(CCOC)C2CCN(C(C)C)CC2)cc1,.,.,-17%,-4%,-5%,.,.,0%
O=C(CN1CC[C@@]2(O)CCCC[C@H]2[C@@H]1c1ccc(F)cc1)NCc1ccco1,.,?,-9%,3%,54%,.,1%[46.1 µM],0%
CCCC(=O)N(Cc1cc(=O)[nH]c2ccccc12)c1ccccc1C,.,?,-10%,-1%,4%,.,?,1%
O=[N+]([O-])c1ccccc1S(=O)(=O)NCCSc1ccccc1,.,-27%[46.1 µM],-2%,-35%,-8%,.,-11%[46.1 µM],-8%
CCC(=O)OC1(c2ccccc2)C(C)CN(C)CC1C (stereo not given),.,-13%[46.1 µM],-12%,-3%,-10%,.,2%[46.1 µM],-1%
CCCNC(=O)CN1C(=O)NC(c2ccccc2)(c2ccccc2)C1=O,.,11%[46.1 µM],25%,1%,-7%,.,.,2%
CCCCN(C)CCCNC(=O)c1cn(C)c2ccc(S(=O)(=O)N(C)C3CCCCC3)cc2c1=O,.,.,21%,2%,-8%,.,.,2%
N=C1C(=O)OCC1c1ccccc1NC(=O)CN1CCOCC1 (stereo not given),9%,?,-10%,-19%,-22%,1.6%,1%,7%
Cc1ccc(C)c(NC(=S)NCc2ccc3[nH]c4c(c3c2)CCCC4)c1,?,?,-14%,16%,-10%,-0.4%,?,-12%
C=CCOc1ccc(C=Nc2ccc(Cl)cc2)c(O)c1,-10%,2%,-22%,23%,-3%,-0.6%,5%,-9%
CCOc1ccc(Nc2nc3c(c(=O)[nH]2)CCC3)cc1,2%,?,19%,-14%,0%,-0.3%,-21%,0%
O=c1cc(-c2ccccc2)[nH]n1-c1nc2ccccc2[nH]1,-16%,?,-20%,?,6%,-3.3%,?,13%
Cc1ccc2nc3c(cc(C#N)c(=O)n3-c3nnc(SCc4ccccc4Cl)s3)c(=O)n2c1,17%,25%[46.1 µM],-3%,.,.,0.3%,17%[46.1 µM],.
COC(=O)NNC(=O)c1cccc(C)c1,0%,-7%,-4%,15%,-8%,-2.3%,5%,1%
O=C1CCCN1C(=O)c1cncc(Br)c1,1%,-2%,13%,0%,-3%,4.5%,-16%,11%
CCOC(=O)N1CCN(c2nc(C)c3c(n2)CCCC3=O)CC1,-2%,?,10%,-8%,1%,-0.1%,2%,-3%
CC(NCCN(C)C)C1CCC2C3CCc4cc(O)ccc4C3CCC12C (stereo not given),.,?,0%,.,12%,.,-15%,.
Cc1nnc2sc(-c3ccc(N(C)C)cc3)nn2c1=O,.,.,21%,6%,-12%,.,.,-4%
C=CCc1ccc(OCCCCOc2ccc(C(=O)O)cc2)c(OC)c1,.,19%[46.1 µM],11%,-5%,-8%,.,-4%,-1%
O=C(NNc1nc2ccccc2s1)C1CC1,1%,18%,38%[activator],0%,-2%,4.6%,29%,4%
C=CCn1c(SCc2ccc(C#N)cc2)nnc1-c1ccccc1,-1%,-8%,-22%,-52%,9%,3.9%,6%,-5%
CCC(=O)N1CC2(CC(c3cccc([N+](=O)[O-])c3)=NO2)C[C@H]1C(=O)NCC(N)=O (stereo not given in full),9%,.,-22%,9%,-16%,3.8%,.,-7%

# Further entries
Molecule,Cruzain noTriton,MARV entry inh,2A StopGo,NS1 inh,RE007 growth inh,Cruzain Triton,Lassa entry inh,SARS PLP yeast
Cc1occc1C(=O)N1CCCC(Nc2ccc(F)c(F)c2)C1 (stereo not given),.,-2%[46.1 µM],-4%,1%,-5%,.,11%[46.1 µM],-5%
COc1cc(C(=O)N[C@H](C(=O)Nc2nnc(C3CC3)s2)C(C)C)cc(OC)c1OC,.,.,-4%,4%,9%,.,.,1%
COc1ccc(C(O)(C(=O)NNc2ccc(C)cc2)c2cccs2)cc1 (stereo not given),-2%,?,8%,-60%,52%,6.3%,-3%,-3%
Cc1c(C)n(CCCN(C)C)c2ncnc(NC3CCCCC3)c12,.,10µM*,-7%,4%,-24%,.,?,1%
